# High-throughput results from PubChem BioAssay.
# CDC25B-CDK2 inh: primary biochemical HTRF screen for blockers of M-phase inducer phosphatase 2 binding to CDK2/cyclin A | P30305+P24941 | HTRF CDC25B-CDK2/CyclinA binding, anti-His/anti-Flag; hits give high values | z-score (no concentration beside the values) | 0.72% of 94,000 active | AID 1259370, 2018;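 note: score is relative to mean and SD of negative controls; strong numbers were not always called active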
# HIV TAR-Tat: TAR RNA-Tat peptide displacers, HIV-1, primary screen, biochemical, FRET, FAM/TAMRA-labeled Tat | 0.6% of 100,000 active | HIV-1 TAR RNA, Tat peptide displacement FRET; hits give high values | z-score (no concentration beside the values);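 note: score is relative to mean and SD of negative controls; some compounds called inactive have numbers as strong as hits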
# The depositor's hits bear a star; x = not tested or not shown.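 Rule for the calls: active = z-score from 3 up in half or more of its runs; inactive = the rest.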
cpd	SMILES	CDC25B-CDK2 inh	HIV TAR-Tat
1	CCCCn1c(Cn2ccnc2C)nc2cc(NC(C)=O)ccc21	-1.4	-0.41
2	CCCS(=O)(=O)Cc1nnc(-c2ccc(C(C)(C)C)cc2)o1	-0.69	x
3	CS(=O)(=O)CCC(C(=O)N1CCC(Cc2ccccc2)CC1)N1Cc2ccccc2C1=O (configuration not stated)	x	1.3
4	Cc1cc(Cl)ccc1Nc1nc(NCCCO)nc2c1cnn2C	x	1.1
5	COc1cc(-c2nc3c(c(=O)[nH]2)Cc2cc(Br)cc(OC)c2O3)ccc1O	-0.76	1.7
6	Cc1ccc(-c2nc3nc(CN4CCCC4)cc(=O)n3[nH]2)cc1	2.1	0.82
7	CC1CSc2ccc(S(=O)(=O)N3CCc4ccccc43)cc2NC1=O (configuration not stated)	x	0.51
8	CC(C)(C)NC(=O)C1CCN(c2ccc(Cl)cc2)C1=O (configuration not stated)	x	0.4
9	O=C(Cn1cc2c(n1)CCCC2)Nc1ccc2c(c1)OCCO2	-0.84	-0.17
10	CN1C(C(=O)N2CCOCC2)=CC(c2ccc(F)cc2)=NS1(=O)=O	0.34	1.4
11	COc1ccccc1Oc1coc2cc(OCC(N)=O)ccc2c1=O	-0.04	1.1
12	Cc1c(N2CCN(S(C)(=O)=O)CC2)c(=O)n(C)c(=O)n1C	x	0.96
13	COc1ccc(-c2ccnc(SCC(=O)N3CCOCC3)n2)cc1	-1.1	x
14	COc1cc(-c2n[nH]c(=S)n2C2CCCCC2)cc(OC)c1OC	-2.1	x
15	Cn1c(=O)cc2c3c(c(NC4CCCCC4)ccc31)C(=O)c1ccccc1-2	6.4	x
16	Cn1c(-c2sc3ccccc3c2Cl)n[nH]c1=S	-1.3	x
17	Cc1nc2sc(C(c3ccccc3)N3CCN(c4ccccc4)CC3)c(O)n2n1 (configuration not stated)	-1.3	x
18	CCc1nn2c(=O)cc(CSc3nc(-c4ccccc4Cl)nc4cc(=O)[nH]n34)nc2s1	x	0.12
19	CCn1cc2c(n1)-c1c(oc(C(=O)Nc3cc(F)ccc3F)c1C)CC2	x	1.2
20	CN(C)CCNc1nc2c(c(=O)n(C)c(=O)n2C)n1Cc1ccccc1Cl	-1.1	1.2
21	O=C(NCCc1ccncc1)Nc1c[nH]c2ccc(F)cc2c1=O	-0.84	-0.16
22	CCOC(=O)c1c(-c2ccccc2)oc2ccc(OCC(=O)OC(C)(C)C)cc12	-0.8	x
23	CCC(=O)N1CCc2cc(Br)cc(S(=O)(=O)CCC(=O)NCCC3=CCCCC3)c21	2	2.3
24	CCc1ccc(C2C(C(=O)OC(C)C)=C(C)Nc3nc4ccccc4n32)cc1 (configuration not stated)	-0.42	0.93
25	COCCNC(=O)COc1ccc(OCCNC[C@H](O)COc2ccccc2)cc1	-2.9	x

# (more compounds)
cpd	SMILES	CDC25B-CDK2 inh	HIV TAR-Tat
26	CC1=C(c2ccc(Cl)cc2)S(=O)(=O)N=C1Nc1cccc(F)c1	-5.5	1.9
27	CS(=O)(=O)c1ccc([C@@H](O)[C@@H](CO)NC(=O)C(Cl)Cl)cc1	x	0.55
28	CCN1CCN(C2=NS(=O)(=O)C(c3ccc(C(C)C)cc3)=C2C)CC1	-0.25	-1.6
29	CC(C)NC(=O)C1c2ccccc2C(=O)N(C)C1c1c[nH]c2ccccc12 (configuration not stated)	-0.87	x
30	CCOC(=O)c1[nH]c2c(c1C)CCCC2	6.7	x
31	Cc1ccc(NC(=O)N2CCn3cccc3C2C(C)C)c(Cl)c1 (configuration not stated)	x	0.68
32	Cc1cccc(-n2c(C)c(C)c3c2ncn2nc(-c4ccccc4O)nc32)c1C	-2.5	1.6
33	CCc1nn2c(=O)cc(CN3CCCCC3)nc2s1	x	-0.76
34	O=S(=O)(c1ccccc1)c1cnc2ccccc2c1Nc1ccccc1	2.1	-1.4
35	Cc1ccc(N2CCN(c3ncnc4onc(C)c34)CC2)c(C)c1	x	-0.25
36	COc1cc(OC)c(NC2c3ccccc3C(=O)N2c2ccc(Cl)cn2)cc1Cl (configuration not stated)	-1.5	0.63
37	Cc1ccc(-c2noc(COc3cccc(C)c3C)n2)cc1	-1.7	x
38	CCOC(=O)Cn1c(=O)oc2cc(S(=O)(=O)N3CCc4ccccc43)ccc21	0.32	x
39	C=CCOc1cccc(C2c3c(-c4ccccc4O)n[nH]c3C(=O)N2Cc2cccnc2)c1 (configuration not stated)	1.1	-0.82
40	COc1cccc(Cn2c(-c3cncs3)nc3ccccc32)c1	-0.7	-0.99
41	Cn1ncc2c(N3CCOCC3)nc(NCc3ccccc3)nc21	x	1.6
42	COc1ccc(N2CCN(c3nc(C)c4c(n3)CCCC4=O)CC2)cc1	-2.4	1.9
43	COC(=O)c1cccc2cccc(I)c12	-1.5	x
44	O=C(Nc1nnc(Cc2nc3ccccc3s2)s1)c1ccccc1	x	0.69
45	Cc1ccc(S(=O)(=O)N2CCCC2c2ccco2)cc1 (configuration not stated)	-3	0.57
46	O=S(=O)(c1ccccc1)N1CCSC1c1ccc(Br)cc1 (configuration not stated)	-0.84	0.87
47	Cc1ccc(Nc2c(-c3ccc4c(c3)CCCC4)c(=O)c2=O)cc1	x	4
48	Cn1c(=O)c2c(SCC(=O)NCc3ccc4c(c3)OCO4)nc(-c3ccco3)nc2n(C)c1=O	0.13	x
49	Cc1c(C)c(C)c(CSCC(=O)NNC(=S)NCc2ccco2)c(C)c1C	-1.8	x
50	CS/C(=N\S(=O)(=O)c1ccccc1)NNc1ccccc1	-0.93	x

# Sorted by SMILES length (rising): part of the list above.
cpd	SMILES	CDC25B-CDK2 inh	HIV TAR-Tat
45	Cc1ccc(S(=O)(=O)N2CCCC2c2ccco2)cc1 (configuration not stated)	-3	0.57
38	CCOC(=O)Cn1c(=O)oc2cc(S(=O)(=O)N3CCc4ccccc43)ccc21	0.32	x
48	Cn1c(=O)c2c(SCC(=O)NCc3ccc4c(c3)OCO4)nc(-c3ccco3)nc2n(C)c1=O	0.13	x

# Further structures
cpd	SMILES	CDC25B-CDK2 inh	HIV TAR-Tat
51	O=C(CCc1nc2sc3c(c2c(=O)[nH]1)CCCCC3)N1CCN(Cc2ccc3c(c2)OCO3)CC1	x	10*
52	O=C1SC(Nc2ccc(Br)cc2)C(=O)N1Cc1ccccc1 (configuration not stated)	-1.4	1.6
53	Nc1ncnc2c1ncn2[C@@H]1O[C@H](CO)[C@@H](O)[C@@H]1O	x	1.2
54	COc1cc(-c2nc3n(n2)C(c2ccncc2)C2=C(CCCC2=O)N3)cc(OC)c1OC (configuration not stated)	-1.7	x
55	CCC1CCCCN1S(=O)(=O)c1ccc2c(c1)C(C)(C)C(=O)N2C (configuration not stated)	x	1.8
56	CN(CC(=O)NC1CCCc2ccccc21)S(=O)(=O)c1ccc2c(c1)NC(=O)CO2 (configuration not stated)	x	0.51
57	CN1CCOc2ccc(S(=O)(=O)NCc3ccccc3)cc21	x	2.1
58	CCCc1cc(=O)n2nc(N3CCC(C(=O)NC4CCCc5ccccc54)CC3)sc2n1 (configuration not stated)	0.19	1.5
59	O=C(NCC1CCCO1)c1ccc(Cn2c(SCc3ccccc3F)nc3ccncc32)cc1 (configuration not stated)	-1.2	-0.07
60	CC(=O)Oc1cc2c3c(c1)C(C)=CC(C)(C)N3C(=O)C2=O	-1	-0.11
61	CC1(C(=O)NC2CCCC2)CCC(=O)N1CCc1cccs1 (configuration not stated)	-1.5	-1.5
62	CC(C)c1cc(C(=O)N2CCCC2c2cc(C(C)C)on2)no1 (configuration not stated)	x	1.1
63	CSc1nc(NCCCO)c(C#N)c(-c2ccc(C(C)(C)C)cc2)n1	0.07	0.65
64	O=C1CC(=O)Nc2cc(S(=O)(=O)Nc3ccc(Br)cc3F)ccc2N1	-1.4	1.2
65	CC(=O)N1CCC2(CC1)OC(=O)C(C)=C2C(=O)NCCCN1CCCC1	x	0.2
66	Cc1c(C(=O)N2CCCCC2)c(S(=O)(=O)N(C)Cc2ccco2)c(C)n1C	x	-0.38
67	Cc1nc(Nc2nc(-c3ccccc3)cc(=O)[nH]2)nc2ccccc12	-1.2	x
68	Cc1nn(C(=O)c2cccs2)c(C)c1S(=O)(=O)N1CCCCC1	x	-0.6
69	COc1ccc(-c2noc(-c3cc(C)cc(C)c3)n2)cc1	-0.47	2.1
70	O=C(NC1CCS(=O)(=O)C1)c1cc(-c2cccnc2)nc2ccccc12 (configuration not stated)	x	0.11
71	O=c1cc(O)c2sccc2[nH]1	-2	x
72	C=CCN[C@H]1CS(=O)(=O)C[C@@H]1S(=O)(=O)c1ccccc1	-0.13	0.47
73	CC(C)CCCC(C)NC(=O)Cn1cnc2c1c(=O)n(C)c(=O)n2C (configuration not stated)	-0.69	0.63
74	Cc1cccc(N(C)S(=O)(=O)c2ccc3[nH]c4c(c3c2)CCCC4)c1	x	-0.48
75	O=C(OCc1cc(=O)n2c3c(sc2n1)CCCC3)c1ccccc1Cl	x	0.56

# (list continues)
cpd	SMILES	CDC25B-CDK2 inh	HIV TAR-Tat
76	CC(=O)N(C(C)=O)c1ccc2c3c(cccc13)CC2	-0.75	x
77	C=CCN1C(=S)NC2(O)c3ccccc3C(=O)C12O (configuration not stated)	-0.18	x
78	Cc1ccc(N2CCN(Cc3nnc(-c4ccc5c(c4)OCO5)o3)CC2)c(C)c1	-1.1	2.5
79	CC1=C(C(=O)OC(C)C)C(c2ccccc2Cl)n2c(nc3ccccc32)N1 (configuration not stated)	-0.39	-1.4
80	Cc1onc(-c2ccccc2)c1C(=O)NC1C(=O)N2[C@@H]1SC(C)(C)[C@@H]2C(=O)O (some centres not stated)	x	-0.42
81	NC(=O)c1cc2nc(-c3ccc(Br)cc3)cc(C(F)(F)F)n2n1	x	0.87
82	Cc1nn(S(=O)(=O)c2ccc(Cl)cc2)c(C)c1Sc1ccccc1	-2	x
83	CCc1ccc2[nH]c(C)c(CN3CCCCCC3)c(=O)c2c1	-1.1	x
84	CCn1c(C(=O)O)cc2c(=O)oc3ccccc3c21	-0.86	0.94
85	Cc1cc(C)c(NC(=O)CSc2nnc(NC(=O)C3CC3)s2)c(C)c1	-4.8	0.8
86	S=C1NC2(CCCCCC2)NN1c1ccccc1	-0.81	x
87	O=C(C1CCN(c2nc3ccccc3n3cccc23)CC1)N1CCN(c2ccccc2F)CC1	x	1.5
88	Cc1cc(C)c2c(=O)cc(CSc3nnc(-c4cccc(F)c4)n3C)[nH]c2c1	x	0.57
89	O=S(=O)(c1ccc2nc(-c3ccccc3)[nH]c2c1)N1CCN(c2ccccc2F)CC1	-1.3	x
90	CC(C)C(=O)Nc1ccccc1Sc1nc(Br)nn1C	x	2.1
91	CN(Cc1ccco1)C(=O)C1CCN(S(=O)(=O)c2ccc3c(c2)NC(=O)CS3)CC1	x	-0.65
92	Cc1ccc2nc(COc3ccc(Cl)cc3)[nH]c2c1	-2	1.8
93	COc1ccc(S(=O)(=O)Nc2ccc(-c3ccc(S(C)(=O)=O)nn3)cc2)cc1	x	-0.11
94	COc1ccc(CCN[C@H]2CS(=O)(=O)C[C@@H]2S(=O)(=O)c2cccs2)cc1OC	-1.4	-0.18
95	O=C(O)c1cccc(-c2cccc(C(=O)O)c2)c1	-0.4	1.9
96	Cc1ccc2nc3sc(C(=O)N4CCN(C(=O)c5ccco5)CC4)cc3cc2c1	x	1.1
97	Cc1nc2ccc(S(=O)(=O)N(C)CC(=O)NC3CCCC3)cc2s1	x	-0.51
98	CCCn1c2ccccc2c2cnn(CC(=O)NC3CCCC(C)C3C)c(=O)c21 (configuration not stated)	x	0.56
99	Cc1nnc(NC(=O)c2cc(=O)c3ccc(C)c(C)c3o2)s1	-1.4	-1.3
100	O=S(=O)(NCCSCc1csc2ccc(Cl)cc12)c1ccc(Cl)cc1	1.2	x

# Later entries:
cpd	SMILES	CDC25B-CDK2 inh	HIV TAR-Tat
101	CCOC(=O)c1sc2nc(C)nc(N3CCCCCC3)c2c1C	-2.4	x
102	COCCn1c(SCC(=O)N2CCC(C)CC2)nc2c(c1=O)SCC2	-0.63	1
103	CCOc1cc(/C=C2\N=C(c3ccccc3F)OC2=O)cc(I)c1OCC	-11	x
104	FC(F)(F)c1ccccc1-c1nnc(-c2sccc2Cl)o1	-1.7	x
105	Cc1nc(N2CCN(C)CC2)ncc1C(=O)NC1CCCCC1	x	1.2
106	COc1ccccc1N1CCN(S(=O)(=O)c2ccc(SC)cc2)CC1	-0.33	-0.15
107	Cc1ccc(-n2nnc(-c3nc(-c4ccccc4F)no3)c2N)cc1C	x	0.96
108	O=C(Cn1c(=O)c(C(F)(F)F)nc2ccccc21)N1CCN(c2ccc(Cl)cc2)CC1	-1.2	1.6
109	CC1Cc2cc(S(=O)(=O)N3CCC(C(=O)N(C)Cc4ccco4)CC3)ccc2N1C(=O)C1CCC1 (configuration not stated)	x	0.22
110	CCOC(=O)c1c(C)[nH]c(C)c1S(=O)(=O)Nc1c(C)cc(C)cc1C	x	1.5
111	COc1ccc2nc(C3C(=O)c4ccccc4C3=O)cc(Cl)c2c1	0.39	-0.3
112	Cc1ccc(-c2cc(C(F)(F)F)n3ncc(C(=O)OCC4CCCO4)c3n2)cc1 (configuration not stated)	-0.28	0.59
113	COc1ccc(C(=O)COc2ccc(C)cc2NC(C)=O)cc1	-0.64	x
114	CCCn1cc2c(c1-c1ccc(C)cc1)c(=O)n(C)c(=O)n2C	-0.94	-0.42
115	COc1ccc(OC)c(NC(=O)CSc2nnc3ccc4ccccc4n23)c1	-0.59	-0.02
116	Cc1ccc(S(=O)(=O)N2CCCC(c3nc(-c4cccnc4)no3)C2)cc1C (configuration not stated)	x	1.5
117	Cc1ccc(-c2nc(CN3N=NC4C(=O)N(c5cc(C)cc(C)c5)C(=O)C43)c(C)o2)cc1 (configuration not stated)	x	0.6
118	C=CCN(C#N)c1nc(NC(C)C)nc(NC(C)C)n1	-1.5	1.7
119	Cc1csc2nc(CN3CCOCC3)[nH]c(=O)c12	-3.6	x
120	C=CCN1C(=O)C2(/C(=C(/O)c3ccc(OCC)cc3)C(=O)C(=O)N2CC2CCCO2)c2ccccc21 (configuration not stated)	0.91	0.23
